BmaI1 – BmaI1 acyl-homoserine lactone synthase inhibition – biochemical, fluorescence intensity, with counterscreen (AID 720554); inhibition, %; BmaI1 enzyme assay, fluorescence intensity; stronger effect = higher value; test concentration not given here; a few actives read low; strong numbers were not always called active; 12,000 tested, 0.4% active;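 active means both replicates within 2 robust z-scores of the inhibited control and a quiet counterscreen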;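 further: 0% = uninhibited enzyme and 100% = inhibited control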
BmaI1 counterscreen – second read-out of BmaI1, no call of its own (marks repeat the call); inhibition, %; measured here: counterscreen; design of the counterscreen not given here;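 first of two replicates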
Starred values were filed as active, the others as inactive. Not all compounds are listed. The share of hits here may be higher or lower than overall.

Each structure is followed by: BmaI1 counterscreen, BmaI1
- O=C(CCN=C1NS(=O)(=O)c2ccccc21)N1CCN(c2ccc(C(F)(F)F)cn2)CC1
  -7.5, -5.5
- CC(C)Sc1nnc(C2CC2)n1-c1ccccc1
  -0.5, 8.5
- Cc1cc(Cl)n2ncnc2n1
  1.5, 10.5
- COc1ccccc1N1C(=S)SC2CS(=O)(=O)CC21 (centres undefined)
  3.5, -2.0
- CCCCNS(=O)(=O)c1ccc2nc(SCC(=O)C(C#N)c3ccccc3)[nH]c2c1 (centres undefined)
  5.5, 9.0
- O=C(CSc1nc2ccccc2o1)NC(=O)NC1CCCC1
  2.0, 3.5
- CC(OC(=O)C1CC1)C(=O)Nc1cccc(Cl)c1 (centres undefined)
  -0.5, 5.5
- CCCCN1C(=O)c2ccc(C(=O)OCC(=O)c3ccc(CNC(C)=O)o3)cc2C1=O
  7.0, 21.5
- O=C(c1ccc2c(c1)OCCO2)N1CCCSC1=Nc1ccccc1
  9.0, 15.5
- Nn1cc(-c2ccccc2)nc1SCC(=O)c1ccc(Cl)s1
  3.5, 4.0
- FC(F)n1c2ccccc2c2ccccc21
  10.0, 22.5
- COc1ccccc1C(=O)NCC(=O)N1CCN(S(=O)(=O)c2cc(C)ccc2C)CC1
  4.0, 11.5
- Cc1ccc(N=Cc2cc(Br)ccc2O)c(S(=O)(=O)N2CCOCC2)c1
  3.5, 9.0
- N#Cc1ccccc1S(=O)(=O)NCc1ccco1
  -7.0, -29.5
- O=C(NCc1ccccn1)c1nn(-c2ccccc2)c(=O)c2ccccc12
  7.5, 8.0
- O=C(OCCOc1ccc(Br)cc1)c1ccc2c(=O)n3c(nc2c1)CCC3
  1.5, 7.5
- CCN(CC(=O)N1N=C(c2ccccc2)CC1c1ccc(OC)cc1)Cc1nc2ccccc2c(=O)[nH]1 (centres undefined)
  3.0, 15.5
- O=C(CN1CCN(c2ccccc2F)CC1)C12CC3CC(CC(C3)C1)C2
  2.5, 2.0
- O=C(Cc1cccc(F)c1)N1CCN(CC(=O)N2CCCC2)CC1
  -6.0, -2.0
- CC1CC(C)CN(C(=O)COC(=O)Cc2cn3ccsc3n2)C1 (centres undefined)
  8.0, 8.0
- COC(=O)C(F)C(=O)OC
  -8.5, -3.0
- O=C(NCCc1ccccc1)[C@@H]1CCCN1C(=O)c1cccs1
  -6.5, 3.5
- O=C1CC(N2CCN(S(=O)(=O)c3cccc(C(F)(F)F)c3)CC2)C(=O)N1Cc1ccccc1 (centres undefined)
  -3.5, -4.0
- COc1ccc(-c2nnc(SCc3cc(=O)n4cc(Br)ccc4n3)n2N)cc1OC
  12.5, 11.0
- Cc1ccccc1Nc1nc(N)nc(COC(=O)C2CCN(C(=O)c3ccc(F)cc3)CC2)n1
  3.0, 14.5
- O=C(COC(=O)C1c2ccccc2Oc2ccccc21)NCc1ccco1
  16.5, 18.5
- CC(C)CNCC(=O)Nc1ccc(S(N)(=O)=O)cc1
  -1.5, 6.5
- COc1ccc(N(Cc2cccs2)C(=O)CSc2n[nH]c(-c3cccs3)n2)cc1
  8.5, 21.5
- CC(/C(O)=C(\C#N)c1nc2ccccc2n1C)N1C(=O)c2ccccc2C1=O (centres undefined)
  -1.0, 9.5
- Cc1sc2nc(COC(=O)C(NC(=O)c3ccco3)C(C)C)[nH]c(=O)c2c1C (centres undefined)
  4.0, 25.5
- CC(C)c1ccc2c(c1)c(SC(C)(C)C)c(CC(C)(C)C(=O)O)n2Cc1ccc(Cl)cc1
  13.5, 14.0
- CC(C)n1nnnc1SCC(=O)NC(=O)NC1CCS(=O)(=O)C1 (centres undefined)
  5.0, 11.0
- CC1=NN(CCc2nc(-c3ccc(Cl)cc3)cs2)C(=O)C1
  31.5, 56.0
- CCC(=O)OCc1cc(F)cc2c1OC(c1ccccc1)OC2 (centres undefined)
  8.0, 17.0
- COc1ccc(NC(C)=O)cc1NC(C)C(=O)NC(C)c1ccc(F)cc1 (centres undefined)
  3.5, 4.5
- CC1CCCC(C)N1C(=O)/C(C#N)=C/c1ccc2c(c1)OCO2 (centres undefined)
  7.0, 12.5
- OCCN1CCSC1=Nc1cccc2ccccc12
  34.5, 30.0
- O=S1(=O)N=C2CCCCCN2C(CSc2nnc(CN3CCCCC3)n2Cc2ccccc2)N1 (centres undefined)
  6.5, 25.0
- c1ccc(Cn2ccnc2)cc1
  11.0, 3.5
- COc1ccc(-n2c(SC(C)C#N)nc3ccccc32)cc1 (centres undefined)
  -8.5, 6.0
- CCCn1c(=O)c2ccccc2n2c(SCC(=O)Nc3c(C)cc(C)cc3Cl)nnc12
  10.5, 23.0
- CN(C(=O)COC(=O)c1cccc(N2C(=O)c3ccccc3C2=O)c1)C1CCS(=O)(=O)C1 (centres undefined)
  1.5, -1.5
- CCOc1ccccc1NC(=O)CSc1nncn1C(C)C
  -2.0, 0.5
- CCOC(=O)CCN1C(=O)CN(C)CC1=O
  -8.0, -11.0
- O=C(CSc1nnc2n1CCCCC2)Nc1ccnn1C1CCCC1
  0.5, 20.0
- CCN(CC)C1=NC(=O)C(CC(=O)Nc2cccc(C(=O)OCC(=O)N(C)C3(C#N)CCCCC3)c2)S1 (centres undefined)
  9.5, 10.5
- C/C(COc1ccccc1O)=N\NC(N)=O
  18.0, 62.0
- Cc1cc(C(=O)COC(=O)c2ccccc2NS(C)(=O)=O)c(C)n1C1CC1
  -6.5, 12.0
- OCCN/N=C/c1cccc(OC(F)F)c1
  -1.0, 3.0
- Clc1ccccc1OCCOc1ncnc2sccc12
  21.5, 3.5

(further entries)
Each structure is followed by: BmaI1 counterscreen, BmaI1
- CCCCc1oc2ccccc2c1C(=O)c1cc(I)c(OCCN(CC)CC)c(I)c1
  23.5, 14.5
- CN(C)S(=O)(=O)c1cccc(COC(=O)C2=NNC(=O)CC2)c1
  8.0, 12.0
- O=C(CC(Nc1ccccc1)C(=O)O)c1ccccc1 (centres undefined)
  -13.0, -9.0
- CC(O)C(NS(=O)(=O)c1ccc(Cl)cc1)C(=O)OCc1nnc(-c2ccccc2)o1 (centres undefined)
  0.5, 6.5
- C/C(=N\NC(=O)COc1ccc(Br)cc1)c1ccc2c(c1)OCO2
  35.0, 21.5
- Cc1noc(C)c1C(=O)OCC(=O)N(c1ccccc1)C1CCCCC1
  4.5, 16.5
- Cc1ccc2c(c1)CCCN2C(=O)CC1OC(=O)c2ccccc21 (centres undefined)
  2.0, 24.5
- O=C(O)CCCNc1nc2ccccc2s1
  3.5, 12.5
- Cc1ccc(Cl)cc1N1CCN(Cn2sc3ccccc3c2=O)CC1
  8.5, 77.0
- Cc1c(O)ccc2c(CN(C)Cc3ccc(Cl)cc3)cc(=O)oc12
  5.5, 10.5
- NS(=O)(=O)c1ccc(CCNC(=O)C2Cc3ccccc3CN2C(=O)c2ccco2)cc1 (centres undefined)
  0.5, 12.0
- Cc1nc2cc(C(=O)Nc3ccccc3O)ccc2n1-c1ccccc1
  16.0, 56.5
- CC1(C)C2CCC1(C)C(NC(=O)C1COc3ccccc3O1)C2 (centres undefined)
  11.5, 15.5
- N=C1C(c2nc3ccccc3s2)=C(O)CN1/N=C/c1ccc(O)c(O)c1O
  24.0, 55.0
- Cc1noc(C)c1COc1ccc(CC(=O)N(C)Cc2ccc3c(c2)OCO3)cc1
  3.5, 16.0
- N=C1N=C2C=CC=CN2C(=O)/C1=C\c1ccccc1
  -41.0, -54.5
- NC(=S)COc1ccc(F)cc1
  9.0, 39.5
- CN(C)C(=O)CN1CCN(Cc2nc3c(Br)cc(Br)cc3c(=O)[nH]2)CC1
  -7.0, 5.0
- N#CCSc1ncnc2cc(-c3ccc(Cl)cc3)sc12
  -4.5, -4.0
- CCOc1ccc(OCCCC(=O)Nc2nc3ccccc3[nH]2)cc1
  -9.5, -3.5
- CCN(CC)S(=O)(=O)c1ccc2c(c1)nc(CCC(=O)OCc1ccc(C(=O)OC)o1)n2C
  4.5, 18.0
- Cc1ccccc1NCCC(=O)NCc1ccccc1F
  10.5, 39.0
- CCC(C)(C)C1CCC(=NNc2ccccn2)CC1 (centres undefined)
  -7.0, 16.0
- O=C(/C=C/c1ccco1)N1CCc2ccccc2C1
  0.0, 25.5
- CC1CN(C(=O)COC(=O)c2ccc(C(=O)c3ccccc3)cc2)CC(C)O1 (centres undefined)
  4.5, 8.5
- O=C1c2ccccc2C(=O)N1SC1CCCCC1
  13.0, 76.0
- CCCn1c(C)cc(/C=C(\C#N)C(=O)OCc2nc3ccccc3s2)c1C
  -0.5, 7.5
- CCCCn1c(COc2cc(C)cc(C)c2)nc2cc(S(N)(=O)=O)ccc21
  7.0, 10.0
- O=C(CCc1nc2ccccc2o1)Nc1ccccc1C(=O)NC1CCCC1
  9.5, 20.5
- CSc1ncccc1C(=O)OCC(=O)Nc1ccc(N2CCOCC2)cc1
  -1.0, 5.5
- NC(=O)COC(=O)c1ccc(S(=O)(=O)N2CCCC2)cc1
  8.0, 7.0
- Nc1ncnc2c1ncn2[C@@H]1O[C@H](CO)C[C@@H]1O
  6.0, -4.0
- COc1ccc(CC(=O)OCC(=O)N2CCCC(C)C2)cc1 (centres undefined)
  4.0, 7.5
- NC(=O)COC(=O)c1ccc2ncsc2c1
  1.0, 19.5
- Cc1sc2nc(N)sc(=O)c2c1C
  0.5, 8.5
- Cc1ccc(-n2nc(C)c(/C=N/N3CCOCC3)c2Cl)cc1
  -6.0, 2.5
- CC(C)(C)NC(N)=S
  15.0, 7.5
- NNC(=O)COc1ccc2oc3c(c2c1)CCCC3
  -37.5, -58.5
- N#CCCN1N=C(c2ccccc2)CC1=O
  6.5, 58.0
- CC12CCC(c3c(C(F)(F)F)nc(N)nc31)C2(C)C (centres undefined)
  5.5, 11.0
- CCCNCc1nnc(-c2ccco2)o1
  5.5, 6.0
- COc1ccccc1-c1nnc(SC(C)c2nc3ccccc3c(=O)[nH]2)n1C (centres undefined)
  0.5, 15.0
- CC(C)CNC(=O)C1CC(=O)N(Nc2ccccc2)C1 (centres undefined)
  17.5, 24.5
- CCCn1nc(C(=O)N/N=C/c2ccc(O)cc2)c2ccccc2c1=O
  10.0, 10.0
- COC(=O)c1ccc(OC)cc1OC(=O)COc1cccc(C)c1
  2.0, -5.0
- CCCCCn1c(=O)c2ccccc2n2c(CN3C(=O)c4ccccc4C3=O)nnc12
  6.0, 12.5
- Cc1[nH]c(=S)[nH]c1Cc1ccccc1
  65.5, 106.5
- O=C(CSc1n[nH]c(-c2ccc(Br)cc2)n1)N1CCCC1
  4.0, 13.5
- N#CCSc1nc(-c2ccccc2)c(-c2ccccc2)o1
  3.0, 10.0
- CCC(C)C(NC(N)=O)C(=O)Nc1ccc(S(=O)(=O)Nc2ccc(OC)cc2)cc1 (centres undefined)
  -6.0, -4.0

One compound at a time, from the list above:
Listed for `CCCCCn1c(=O)c2ccccc2n2c(CN3C(=O)c4ccccc4C3=O)nnc12` : BmaI1 counterscreen: 6.0; BmaI1: 12.5
Listed for `O=C(CSc1n[nH]c(-c2ccc(Br)cc2)n1)N1CCCC1` : BmaI1 counterscreen: 4.0; BmaI1: 13.5

Remaining list, next part.
Each structure is followed by: BmaI1 counterscreen, BmaI1
- Cc1ccc(N2C(=O)c3cc(N(C)C)ccc3P2(=O)N2CCOCC2)cc1 (centres undefined)
  -17.5, -16.5
- O=C(O)CCN(Cc1ccccc1)S(=O)(=O)c1cccs1
  1.5, 11.0
- CCn1cnc2ccc(N3Cc4ccccc4C3=N)cc21
  9.5, 7.0
- Cn1cnnc1Sc1ccc(Cl)cc1NC(=O)c1cc(=O)[nH]c2ccccc12
  9.5, 27.5
- CCCCCC(=O)Nc1ccc(C(=O)COC(=O)c2cccnc2N2CCCC2)cc1
  18.0, 16.5
- CCCC(C(=O)Nc1nccs1)c1ccccc1 (centres undefined)
  2.0, 12.0
- O=C(NN1CCOCC1)c1ccccc1NS(=O)(=O)c1ccc(F)cc1F
  7.0, 16.5
- COc1cccc(OC)c1OC(=O)/C=C/c1ccc(C)o1
  -1.5, 14.0
- O=C(COC(=O)c1cccc(Cl)c1Cl)Nc1ccc2[nH]c(=O)[nH]c2c1
  16.0, 15.5
- N#CCc1nc(CCNc2ccccc2)no1
  59.5, 82.5
- CCCn1c(SC(C)C(=O)Nc2ccc(C#N)cc2)nc2ccccc21 (centres undefined)
  -9.5, -11.0
- COc1cc2c(cc1OC)CN(c1nnnn1-c1ccccc1)CC2
  5.5, 12.5
- CN1CCN2c3ncccc3Cc3ccccc3[C@@H]2C1
  -3.5, -5.5
- CCN(CC1COc2ccccc2O1)C(=O)c1ccc2c(c1)SC1=NS(=O)(=O)CCN12 (centres undefined)
  12.5, 12.0
- CN(Cc1cccs1)S(=O)(=O)c1ccc(Br)cc1Cl
  6.0, 7.5
- COc1ccc(CNC(=O)COC(=O)Cc2ccc(OC)cc2)cc1
  2.0, 5.5
- COc1ccc2c(COC(=O)c3c(-c4ccccc4)noc3C)cc(=O)oc2c1
  1.0, 3.5
- CCN(CC)C(=O)c1ccc(NC(=S)NC2CC2)cc1
  9.5, -4.5
- CC(OC(=O)c1ccccn1)C(=O)Nc1ccc(C(F)(F)F)cc1 (centres undefined)
  8.0, 5.5
- Cc1cc(C)n2cc(CSc3ccccn3)nc2n1
  3.5, 6.5
- CC(C)c1cc(NC(=O)COC(=O)c2ccccc2SCC(=O)N2CCCC2)on1
  -1.0, 1.5
- N=C1c2ccccc2CN1NC(=O)CSc1nc2ccccc2[nH]1
  30.0, 11.5
- CSc1ccccc1NC(=O)C(C)OC(=O)c1nn(-c2ccccc2)nc1C (centres undefined)
  9.0, 15.5
- O=C1CCCCC1Sc1nnc(Nc2ccccc2)s1 (centres undefined)
  18.5, 45.0
- COc1cccc(C(=O)NCCCn2ccnc2)c1
  12.5, 5.0
- CCCCC/C=C\C/C=C\C/C=C\C/C=C\CCCC(=O)Nc1ccc(O)cc1
  23.0, 18.0
- CCOc1cccc(CO)c1OCc1ccccc1
  13.0, 11.5
- COC(=O)CNC(=O)c1ccc(COC(C)=O)cc1
  -6.5, -8.5
- Cc1cccc(-c2cc(N)n(-c3ccccc3)n2)c1
  9.5, 11.0
- COc1ccc(C(=O)OCC(=O)NCc2ccc3c(c2)OCO3)cc1S(=O)(=O)N1CCOCC1
  -14.0, 25.5

Bioassay records as filed in PubChem BioAssay.
